PINK1 expr mod: modulators of PINK1 expression; Potency, µM (doses to about 76.6 µM), inactives show at the highest dose activation (PINK1 increase), hits mostly activators; 0.2% of 410,000 active; PINK1 immunofluorescence, high-content cytometry, 24 h; active = well fitted activation curve with a large enough effect; inconclusive = small, poorly fitted or top-dose-only effect; inactive = flat fitted curve, though single readings scatter; cell line not stated here;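 further: potency means the concentration at half of the fitted maximal effect; % of control where 0% means no effect; nearly all actives have a fitted effect of over 65% in size; a mitochondrial uncoupler was the plate control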
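PINK1 protein, normally rapidly degraded, was detected by immunofluorescence after 24 hour compound treatment of a stable cell line. Titration data (5 concentrations) came from laser-scanning cytometry, with CCCP-treated wells as controls.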
D2 PAM: positive allosteric modulators of human D2 dopamine receptor; AID 624464; 0.23% of 360,000 active; potentiation, % (test concentration not listed); P14416; DiscoveRx D2 beta-arrestin cells, luminescence, 90 min; 100% = 57 uM dopamine signal; active = potentiation of 50% or more; inconclusive = 30% to 50%; inactive = 30% or less;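 further: compound concentration not given in the record; tested on top of an EC20 dose of dopamine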
Target sequence (P14416 whole entry, looked up): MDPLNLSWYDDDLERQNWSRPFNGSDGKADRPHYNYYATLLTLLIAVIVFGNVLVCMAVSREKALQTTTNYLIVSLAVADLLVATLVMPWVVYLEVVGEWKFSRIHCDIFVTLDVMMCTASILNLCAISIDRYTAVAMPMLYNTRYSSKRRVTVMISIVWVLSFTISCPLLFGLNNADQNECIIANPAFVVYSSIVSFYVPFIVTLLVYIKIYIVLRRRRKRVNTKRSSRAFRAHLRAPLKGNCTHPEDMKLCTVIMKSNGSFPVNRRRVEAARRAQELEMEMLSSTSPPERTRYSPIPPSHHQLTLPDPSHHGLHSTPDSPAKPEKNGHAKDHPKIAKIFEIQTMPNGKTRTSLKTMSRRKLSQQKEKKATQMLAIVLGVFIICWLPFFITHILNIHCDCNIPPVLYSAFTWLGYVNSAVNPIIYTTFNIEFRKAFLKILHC
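PathHunter beta-arrestin assay in DiscoveRx D2 cells. Compounds were added with an EC20 of dopamine (50 nM final) for 90 min at 37 deg C. Luminescence was read 1 h after detection reagent, with 57 uM dopamine as the EC100 control.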
D2 ag: human D2 receptor agonism in beta-arrestin assay | 0.084% of 360,000 active | DiscoveRx PathHunter D2 beta-arrestin, luminescence, 90 min; 100% = 57 uM dopamine signal | activation, % (concentration not given with the values) | P14416; in the data active = activation above about 40%; inconclusive = about 15% to 40%; inactive = below about 15%; further: compound concentration not given in the record; the text of the record calls up to 30% inactive
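DiscoveRx PathHunter D2 beta-arrestin cells (2,100/well) attached overnight, then compound-stimulated 90 min at 37 C in HBSS/10 mM HEPES/0.1% Tween-20 buffer; beta-galactosidase complementation read by luminescence after 1 h at ambient temperature. Dopamine 57 uM final (EC100) as control.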
TRPML1 agonist: agonists of human TRPML1 channel; Q9GZU1; TRPML1-expressing cells, Ca2+ dye fluorescence, FDSS; host cell line not named in the record; reference of the full effect not given here; activation, % (no concentration beside the values); 0.12% of 410,000 active; AID 624414; in the data active = activation above about 50%; inconclusive = about 30% to 50%; inactive = below about 30%; further: 0% is about no effect; the text of the record puts the active cut at 80%
Target sequence (Q9GZU1 whole entry, looked up): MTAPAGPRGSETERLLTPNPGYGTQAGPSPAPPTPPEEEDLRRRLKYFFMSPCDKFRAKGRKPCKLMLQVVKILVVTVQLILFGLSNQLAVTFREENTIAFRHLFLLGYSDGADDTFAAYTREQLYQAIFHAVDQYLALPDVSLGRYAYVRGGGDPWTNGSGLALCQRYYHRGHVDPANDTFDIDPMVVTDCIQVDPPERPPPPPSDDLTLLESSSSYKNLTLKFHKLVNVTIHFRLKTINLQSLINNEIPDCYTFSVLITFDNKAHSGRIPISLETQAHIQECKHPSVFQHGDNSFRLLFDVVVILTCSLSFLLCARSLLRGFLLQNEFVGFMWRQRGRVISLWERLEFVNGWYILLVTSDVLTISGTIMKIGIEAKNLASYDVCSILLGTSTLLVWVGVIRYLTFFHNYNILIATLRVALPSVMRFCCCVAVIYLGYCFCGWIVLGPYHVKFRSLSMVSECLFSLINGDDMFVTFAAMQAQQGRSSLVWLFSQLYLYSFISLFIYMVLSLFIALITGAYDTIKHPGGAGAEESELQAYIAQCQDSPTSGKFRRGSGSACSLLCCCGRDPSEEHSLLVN
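Calcium fluorescence on an FDSS kinetic reader gave the read-out. Tet-induced TRPML1-DL cells were plated overnight, dye-loaded (Ca8 with quencher, 45-90 min, room temperature, dark), then read 110 s after compound addition, and again 110 s after 4uM final 54-4 (EC80).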
CtBP-E1A blk: CtBP/E1A binding inhibition | AID 651724 | 0.49% of 340,000 active | activity change, % (concentration not given with the values) | AlphaScreen GST-E1A/His-CtBP binding, 1536-well; hits give low values; control for the full effect not named in the record; in the data active means activity change below about -65%; inconclusive means about -30% to -65%; inactive means above about -30%; further: on the % scale 0 is the no-effect control and ±100 the full control effect
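Homogeneous bead-based format: GST-tagged E1A captured on glutathione donor beads, His-tagged CtBP on nickel acceptor beads; compounds precede bead addition by 2 h at 37 °C.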
Six1-Eya2 blk: Six1/Eya2 interaction inhibition | Q15475+O00167 | activity change, % (concentration not given with the values) | 0.56% of 360,000 active | AlphaScreen GST-Six1/His-Eya2 binding, biochemical; hits give low values; control for the full effect not named in the record; in the data active = activity change below about -65%; inconclusive = about -30% to -65%; inactive = above about -30%; further: on the % scale 0 is the no-effect control and ±100 the full control effect
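Six1/Eya2 binding was read as AlphaScreen signal after compounds were pinned into GST-Six1 plus His-tagged Eya2 (5X stock 250/500 nM) in pH 8.0 Tris/NaCl/TCEP buffer, beads added, then incubated 1 h, 37 C, dark.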
An asterisk follows results filed as active; ? = inconclusive; / = no result given; & = joins results of further samples; [ ] = remark or other dose.

SMILES	PINK1 expr mod	D2 PAM	D2 ag	TRPML1 agonist	CtBP-E1A blk	Six1-Eya2 blk
CC(C)(C)OC(=O)[C@H](Cc1ccccc1)NC(=O)c1nc[nH]c1C(=O)N1CCN(C(=O)OC(C)(C)C)CC1	2.0%	1	1.5	0.7	2	-1
CC(O)(CS(=O)(=O)Cc1ccc(Cl)cc1)C(=O)Nc1cccc(C(F)(F)F)c1 (stereo not drawn)	10%[38.3 µM]	-11	-4.4	0.4	0	0
O=C(NCc1ccc(F)cc1)c1ccc(Cl)c(NC2=NC3CS(=O)(=O)CC3S2)c1 (stereo not drawn)	4.2%	-7	-1.9	-0.8	-7	-1
COc1ccc(CC(=O)N[C@@H](C)C(=O)N2CCC3(CC2)NCCc2[nH]cnc23)cc1	-1.6%	-8	2.8	-0.8	0	-4
CCOC(=O)c1ccc(NC(=O)c2nc[nH]c2C(=O)NC[C@H](C)O)cc1	0.8%	/	-1.2	/	-29	-12
COc1ccccc1N1CCN(C(=O)CN(C)S(=O)(=O)c2ccc(C)cc2)CC1	0.4%	-13	-0.7	-0.5	-18	9
O=C(NCCN1CCN(c2ccccc2)CC1)C1CCCN(S(=O)(=O)c2cnc[nH]2)C1 (stereo not drawn)	0.0%	74*	?	-0.3	3	-1
CCOc1ccccc1N=C1SCC(C)N1C(=O)C1CCN(c2ncnc3sc(C)c(C)c23)CC1 (stereo not drawn)	-1.1%	1	2.1	0.1	-6	-10
CC(=O)Nn1c(C)nnc1-n1nc(C)cc1C	2.4%	-12	-2.2	-0.7	11	9
COC(=O)c1cc(N=CC2=C(O)CC(C)(C)CC2=O)cc(C(=O)OC)c1	-0.6%	-11	-0.7	1.0	/	-1
C(=C\c1ccccc1)/CN1CCN(C(c2nnnn2-c2ccc3c(c2)OCCO3)C2CC2)CC1 (stereo not drawn)	13%	-6	9.7	1.4	-23	-25
Cc1ccc(S(=O)(=O)NCc2nnc(SCC(=O)Nc3cccc(C)c3C)n2C)cc1	7.9%[38.3 µM]	-9	-3.8	-0.4	-2	2
CN(C)S(=O)(=O)c1ccc2c(c1)C(=NO)c1cc(S(=O)(=O)N(C)C)ccc1-2	6.1%	-4	3.5	1.1	8	-6
CC(=O)NC(Cc1ccccc1F)C(=O)NC1CCN(C(=O)NCc2ccccc2)CC1 (stereo not drawn)	-1.0%	-4	-3.0	5.0	3	7
COc1ccc(CC(=O)N2CCN=C2SC)cc1OC	-1.2%	-1	3.5	0.1	18	2
O=C(NCc1ccc2c(c1)OCO2)c1[nH]c(C(F)(F)F)nc1-c1ccccc1	13%	0	1.9	-0.7	-8	-9
O=C(O)c1ccc(OCCN2CCCC2=O)cc1	-0.6%	-7	-0.8	0.2	5	12
CCc1ccc2oc(-c3cc(N)ccc3Cl)nc2c1	-2.2%	-9	1.7	1.2	-2	5
Cc1sc2ncnc(OCC(=O)N3CCN(S(=O)(=O)c4ccc(Cl)cc4)CC3)c2c1C	-0.5%	-9	-4.3	-0.2	-2	-2
CCC(=O)CN(Cc1cc(OC)ccc1OC)S(=O)(=O)c1ccccc1Br	1.2%	-8	-2.2	-0.6	-3	-1
O=c1[nH]cnc2ccc([N+](=O)[O-])cc12	-0.1%	-7	1.5	/	-19	-8
CC(SCc1ccccc1)C(=O)Nc1ccccc1-c1ccccc1 (stereo not drawn)	2.8%	-15	-3.7	3.7	0	12
CN(C)c1ccc(N=Nc2ccccc2C(=O)OCC(=O)NC2CCCC2)cc1	11%	-20	-5.4	3.0	-66*	-71*
O=C(N1CCN=C1SCc1cccnc1)C12CC3CC(CC(C3)C1)C2	1.4%	-14	0.7	0.1	-1	-1
NNC(=O)CN1C(c2ccc(Cl)cc2)=Nc2ccc(Br)cc2C1c1ccccc1 (stereo not drawn)	2.9%	-32	-1.9	1.6	-14	0
O=[N+]([O-])c1cc(S(=O)(=O)Oc2ccccc2)ccc1Cl	-7.2%	-4	6.0	10	15	-15
CN(CCC#N)C(=O)c1ccc(CNS(=O)(=O)c2ccc(F)cc2)cc1	1.1%	-26	-3.9	-0.6	3	0
COc1cc2c(cc1OC)C(c1ccc(C)cc1)NC(=O)C2 (stereo not drawn)	-0.4%	0	-3.0	0.4	-9	-2
O=S(=O)(/C=C/c1ccccc1)NCCc1ccccn1	0.0%	-9	-2.2	-0.4	7	3
COc1cc(C(=O)N2CCCC(c3cc(C(=O)NCc4ccc(F)cc4)no3)C2)cc(OC)c1C (stereo not drawn)	0.7%	-1	-2.4	-0.5	-13	-19
CCCCNC(=O)Cn1c(=O)n(C)c2ccccc21	0.3%	5	-3.6	-0.3	1	2
Cc1ccccc1-n1c(=O)c2ccccc2n2nnnc12	-2.2%	7	-3.1	0.5	13	8
C/C(=N\NC(=O)CNC(=O)C1COc2ccccc2O1)c1ccc(Cl)cc1 (stereo not drawn)	-0.2%	-7	-4.3	-0.4	5	1
Cc1ccc(S(=O)(=O)N2CCOCC2)cc1C(=O)NC1CCN(Cc2ccccc2)CC1	0.4%	-7	3.0	-0.5	-5	3
CCOC(=O)C1=C(C)NC(C)=C(C(=O)OCC)C1C(=O)OCC(=O)N1CCCCC1CC (stereo not drawn)	-2.6%&-1.2%	-7&-1	0.1&-0.3	0.3&-1.7	-2&4	7&-1
O=C(c1ccc(Cl)c(S(=O)(=O)N2CCCC2)c1)N1CCCCC1	-0.5%	-9	-3.7	0.0	9	3

Three compounds already listed, sorted by SMILES length, lowest first.
SMILES	PINK1 expr mod	D2 PAM	D2 ag	TRPML1 agonist	CtBP-E1A blk	Six1-Eya2 blk
O=C(c1ccc(Cl)c(S(=O)(=O)N2CCCC2)c1)N1CCCCC1	-0.5%	-9	-3.7	0.0	9	3
CC(=O)NC(Cc1ccccc1F)C(=O)NC1CCN(C(=O)NCc2ccccc2)CC1 (stereo not drawn)	-1.0%	-4	-3.0	5.0	3	7
O=C(NCc1ccc(F)cc1)c1ccc(Cl)c(NC2=NC3CS(=O)(=O)CC3S2)c1 (stereo not drawn)	4.2%	-7	-1.9	-0.8	-7	-1

Next section
SMILES	PINK1 expr mod	D2 PAM	D2 ag	TRPML1 agonist	CtBP-E1A blk	Six1-Eya2 blk
CC1CCCC(C)N1C(=O)CSc1ccc(-c2ccc3c(c2)OCCO3)nn1 (stereo not drawn)	5.6%	-3	3.1	2.2	-12	-28
CCOC(=O)c1[nH]c2ccc(F)cc2c1NC(=O)c1ccccc1C(=O)O	0.2%	-1	13	1.6	/	0
O=C(Nc1ccccc1OC(F)F)C1CC(=O)N(Cc2ccccc2)C1 (stereo not drawn)	-0.6%	-4	-2.1	-0.1	-4	9
COc1ccc2c(c1OC)c(=O)n1c3ccc(OC(C)C(=O)NCCCN4CCOCC4)cc3c3ccnc2c31 (stereo not drawn)	0.8%	-40	-6.1	/	-6	-6
O=C(CSc1n[nH]c(=O)[nH]c1=O)NCC1CCCCC1	1.2%	-3	0.8	0.6	6	29
O=S1(=O)CCOC[C@H](c2ccccc2)N1Cc1ccccc1	-0.3%	-5	-0.9	1.1&-1.0	-14	12
Cc1cccc(NC(=O)Cn2nc(-c3ccco3)ccc2=O)c1C	0.9%	0	-3.6	0.0	1	6
CC(=O)Nc1ccc(NC(=O)COC(=O)c2c(C)nn(-c3ccccc3)c2C)cc1	-0.7%	-11	3.3	0.4	-14	0
Cc1cc2c(cc1S(=O)(=O)N1CC(C)CC(C)C1)OCC(=O)N2 (stereo not drawn)	8.1%	-3	-3.6	0.5	-11	0
Cc1cc2c(c(SCC(N)=O)n1)C(=O)OC2	0.7%	1	-3.3	-0.2	3	3
O=C(CSc1nc2ccccc2[nH]1)NC1CCCC1	0.6%	-11	-3.4	-1.1	2	-18
Cc1ccc(S(=O)(=O)N2CCN(C(=O)CCC(=O)NCc3cccc(C(F)(F)F)c3)CC2)cc1	-1.2%	-21	-3.4	-1.0	-6	-3
CCC1CCCCN1C(=O)/C=C/c1ccc2c(c1)OCO2 (stereo not drawn)	0.3%	-2	1.1	0.9	5	2
Cc1ccc2oc(-c3ccc(NC(=O)CC(C)C)cc3)nc2c1	26%[38.3 µM]	-6	2.1	0.1	-2	2
O=C(CSc1nnc(-c2ccncc2)o1)Nc1cc(Cl)ccc1C(=O)O	1.1%	-8	-5.1	0.3	-6	-6
c1ccc2c(OCCCCN3CCCC3)cccc2c1	-0.1%	-63	1.6	-0.1	/	-5
COc1cccc(/C=N/NC(=O)CNC(=O)c2ccc(S(=O)(=O)N3CCCC3)cc2)c1OC	-0.7%	-5	1.9	-1.2	/	-22
CCN(CC)c1ccc(NC(=O)Nc2cccc3ccccc23)cc1	9.0%	0	6.3	-0.7	7	-24
Cc1ccc(OCc2nc(-c3ccccn3)n[nH]2)cc1	-1.8%	-19	-3.3	1.3	-98*	-92*
O/N=C/c1ccn(-c2ccc(Br)cc2)c1	-0.1%	-1	-4.7	0.1	-7	-18
Cc1cc(-n2[nH]c(C)c(C)c2=O)nc(-c2ccccc2O)n1	-0.2%	-19	-3.3	-0.1	?	?
O=[N+]([O-])c1ccccc1CSc1nc2ccccc2o1	7.5%	-10	-4.9	-0.2	-4	-9
CCSc1nnc(-c2ccccc2NC(=O)CC)c(=O)[nH]1	-0.8%	4	-5.4	1.8	0	10
O=C(O)c1cc(-n2cccc2)ccc1N1CCOCC1	0.6%	1	-4.5	-0.2	-17	-9

4 compounds picked at random from those above:
SMILES	PINK1 expr mod	D2 PAM	D2 ag	TRPML1 agonist	CtBP-E1A blk	Six1-Eya2 blk
CCC1CCCCN1C(=O)/C=C/c1ccc2c(c1)OCO2 (stereo not drawn)	0.3%	-2	1.1	0.9	5	2
Cc1ccc2oc(-c3ccc(NC(=O)CC(C)C)cc3)nc2c1	26%[38.3 µM]	-6	2.1	0.1	-2	2
CCSc1nnc(-c2ccccc2NC(=O)CC)c(=O)[nH]1	-0.8%	4	-5.4	1.8	0	10
O/N=C/c1ccn(-c2ccc(Br)cc2)c1	-0.1%	-1	-4.7	0.1	-7	-18

The listing continues:
SMILES	PINK1 expr mod	D2 PAM	D2 ag	TRPML1 agonist	CtBP-E1A blk	Six1-Eya2 blk
CCN(CC)Cc1ccccc1CNC(=O)c1cccc(S(=O)(=O)Nc2ccc3c(c2)OCO3)c1	-0.8%	-2	-0.3	0.4	-1	-11
CCc1cccc(C)c1NC(=O)CSc1nc(-c2ccccc2F)nc2nc[nH]c12	25%	-14	-3.5	0.2	-3	-4
Nc1nc(Cl)cc(Oc2ccc([N+](=O)[O-])cc2)n1	1.9%	-7	2.4	1.5	/	-4
Cc1c(N)cc(N)cc1C(=O)O	0.0%	17	2.0	9.5	-24	-9
COCCC(=O)N1CCC(C(=O)Nc2ccc(Oc3ccccc3)nc2)CC1	-1.0%	-14	-1.8	-0.1	0	1
CCOc1ccc(S(=O)(=O)Nc2cccc(C(=O)N(C)CC(=O)Nc3ccc(OC)cc3)c2)cc1	3.1%	-16	-3.6	0.6	-6	3
CCOC(=O)N1CCC(NC(=O)c2cnc3n(c2=O)CCS3)CC1	-0.9%	-8	-7.6	0.3	8	-2
CC1(C)c2cc(Cl)ccc2-n2c1cc(O)c(-c1ccccc1)c2=O	2.0%	-7	0.3	0.7	3	13
COc1ccc(N2CCN(C(=S)Nc3ccc(OC)cc3OC)CC2)cc1	1.7%	-1	0.0	0.9	0	-4
O=C(COC(=O)c1ccc([N+](=O)[O-])s1)c1ccc[nH]1	-4.3%	6	6.4	0.5	-2	-1
Cc1ncoc1C(=O)N1CCCC(N2CCN(c3ccccc3F)CC2)C1 (stereo not drawn)	-0.3%	-26	-3.0	1.4	0	26
